FGF22 binding = binders of human FGF22 protein, primary screen, FGF22 synaptogenesis inhibitor project, biophysical, thermal shift, single point. Fibroblast growth factor 22 (Homo sapiens), Q9HCT0. recombinant FGF22 thermal shift, SYPRO orange fluorescence; percent of sucrose octasulfate shift, DMSO zero. calls only at 9.99 µM. 1.5% of 340,000 active;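 active means melting point raised past a set limit in the mean and every replicate; three in four hits are not shown here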
Target sequence (Q9HCT0 whole entry, looked up): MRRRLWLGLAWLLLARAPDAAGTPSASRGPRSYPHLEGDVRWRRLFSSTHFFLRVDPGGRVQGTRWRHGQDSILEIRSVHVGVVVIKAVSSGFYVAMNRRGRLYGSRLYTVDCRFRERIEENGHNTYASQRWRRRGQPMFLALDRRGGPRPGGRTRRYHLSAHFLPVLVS
AF4-AF9 inh = inhibitors of AF4 peptide binding to AF9, primary screen, biochemical, AlphaScreen, biotin-AF4 peptide, FLAG-AF9, single point; Protein AF-9 (Homo sapiens), P42568; AID 651704, 2012; 0.47% of 350,000 active; inhibition, % at 10 µM;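 active means every replicate reaching a set inhibition limit, whatever the replicate mean, cut at about 25% in these data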;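 further: 0% = plate neutral control median and 100% = total signal loss; the record names both 10 and 1 µM as test concentration; the first replicate is given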
Target sequence (P42568 whole entry, looked up): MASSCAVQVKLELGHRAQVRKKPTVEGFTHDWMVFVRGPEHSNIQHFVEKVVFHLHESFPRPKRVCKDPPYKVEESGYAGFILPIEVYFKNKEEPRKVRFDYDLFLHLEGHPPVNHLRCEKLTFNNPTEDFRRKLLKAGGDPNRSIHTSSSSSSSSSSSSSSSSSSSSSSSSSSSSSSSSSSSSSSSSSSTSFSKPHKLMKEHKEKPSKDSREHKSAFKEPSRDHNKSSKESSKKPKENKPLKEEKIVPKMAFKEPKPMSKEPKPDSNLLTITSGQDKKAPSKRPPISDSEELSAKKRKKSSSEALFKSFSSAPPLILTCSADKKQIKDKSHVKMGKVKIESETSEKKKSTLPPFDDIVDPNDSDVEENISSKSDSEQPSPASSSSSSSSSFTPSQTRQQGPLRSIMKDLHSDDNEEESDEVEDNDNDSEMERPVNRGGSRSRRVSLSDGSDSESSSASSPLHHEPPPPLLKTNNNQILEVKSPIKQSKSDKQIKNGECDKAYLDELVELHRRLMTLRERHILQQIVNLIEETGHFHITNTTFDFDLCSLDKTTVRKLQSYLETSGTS
rRNA inh HTS = reduced GFP signal of wild-type E. coli, primary screen, bacterial rRNA inhibitor project, GFP/RFP fluorescence, OD600, single point. E. coli WT GFP vs humanized-ribosome RFP mutants, 24 h; active compounds read low; DMSO median 0, no signal -100. 1.6% of 350,000 active. GFP signal change (wild-type ribosome), % (test concentration not listed). AID 720706, 2013;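 active means significant combined selectivity score with lowered wild-type GFP, culture density cut under 30%, mutant RFP and density less affected; inactive means any of these conditions unmet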; further: one replicate is shown; some compounds called inactive have numbers as strong as hits
rRNA inh HTS OD600 = recorded beside rRNA inh HTS, whose call it bears; OD600 change, %; measured here: OD600 growth;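 optical density of the mix in the first replicate; 0 = DMSO median and -100 = no signal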
rRNA inh HTS RFP = second read-out of rRNA inh HTS, no call of its own (marks repeat the call); RFP signal change, %; measured here: RFP humanized mutant strains;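 first replicate; 0 = DMSO median and -100 = no signal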
An asterisk follows results filed as active; i = inactive.

Under each structure – FGF22 binding, AF4-AF9 inh, rRNA inh HTS, rRNA inh HTS OD600, rRNA inh HTS RFP
> C[C@H](CO)N1C[C@H](C)[C@H](CN(C)Cc2ccncc2)OCCCC[C@H](C)Oc2ccc(NS(=O)(=O)c3cn(C)cn3)cc2C1=O
    i, 0.2, 3.3, -0.4, -0.7
> COc1cccc(CN2CC3(CN(CC4CCOCC4)C3)c3c([nH]c4cc(OC)ccc34)[C@@H]2CO)c1
    i, 1.2, -2.3, 3.3, -1.6
> O=C(C[C@H]1C[C@@H]2c3cc(NS(=O)(=O)c4ccc(F)cc4)ccc3O[C@@H]2[C@@H](CO)O1)NCc1cccc(F)c1
    i, 3.5, -0.6, -22.9, 9.4
> CCC(=O)N1CCCCN2[C@H](C1)[C@@H](c1ccc(-c3cccc(C#N)c3)cc1)[C@@H]2CO
    i, 5.3, -8.6, -6.4, -4.0
> C[C@H](CO)N1C[C@H](C)[C@H](CN(C)CC2CC2)Oc2ccc(NS(=O)(=O)c3ccc(F)cc3)cc2C1=O
    i, -0.5, 4.5, 8.7, -0.3
> O=C(C[C@H]1C[C@@H]2c3cc(NC(=O)Nc4ccccc4)ccc3O[C@@H]2[C@H](CO)O1)NC1CCCCC1
    i, 1.0, -6.5, -14.5, 1.9
> COc1ccc(NC(=O)N(C)C[C@@H]2Oc3cc(-c4ccncc4)ccc3S(=O)(=O)N([C@H](C)CO)C[C@@H]2C)cc1
    i, 13.3, -3.6, 7.2, -0.2
> CCCN1[C@@H]2c3cccc(=O)n3C[C@H]1[C@H](CO)[C@H]2C(=O)N1CCCCC1
    i, -0.5, 2.3, 5.1, 5.1
> CN1c2ccc(C#Cc3cccnc3)cc2[C@@H]2[C@@H](CCN2S(=O)(=O)c2cccc(F)c2)[C@H]1CO
    i, -2.5, -8.6, -12.0, 6.2
> O=C(N[C@H]1CC[C@@H](CCNS(=O)(=O)c2ccc(Cl)cc2)O[C@H]1CO)c1cccnc1
    i, 1.0, 0.3, 0.3, -0.9
> C/C=C/c1ccc2c(c1)O[C@H](CN(C)C(=O)NC1CCCC1)[C@@H](C)CN([C@H](C)CO)S2(=O)=O
    i, -0.3, 0.3, -4.9, 0.6
> C[C@@H]1CN([C@H](C)CO)C(=O)c2cc(NS(=O)(=O)c3cccs3)ccc2O[C@@H](C)CCCCO[C@@H]1CN(C)C(=O)c1ccccc1
    i, 4.2, -1.5, -6.1, 0.0
> COc1ccccc1NC(=O)N[C@@H]1CC[C@@H](CC(=O)NCc2ccc(Cl)c(Cl)c2)O[C@H]1CO
    i, 2.6, -0.9, -5.8, -0.8
> CCCOc1ccc(F)cc1-c1cc(C(=O)NCc2ccccc2)[nH]n1
    i, 1.1, -5.0, -23.9, -0.9
> CCCNC(=O)N1[C@H](C#N)[C@H](c2ccccc2-c2ccccc2F)[C@@H]1CO
    i, -1.2, -9.5, -1.4, 0.5
> CCCCn1nnnc1C1(C)CCC(=O)N1Cc1cccs1 (centres undefined)
    i, -3.4, 6.7, 17.9, -1.8
> CC(C)NC(=O)Nc1ccc2c(c1)C(=O)N([C@@H](C)CO)C[C@H](C)[C@H](CN(C)Cc1ccc(C(=O)O)cc1)OCCCC[C@H](C)O2
    i, -0.3, -1.6, 3.2, -2.5
> COc1ccc(NC(=O)N(C)C[C@H]2Oc3ncc(C#CCN(C)C)cc3C(=O)N([C@H](C)CO)C[C@H]2C)cc1
    i, -2.1, 1.7, 0.7, 0.5
> CCC(=O)Nc1ccc2c(c1)OC[C@H](C)N(C(=O)Cc1ccccn1)C[C@@H](C)[C@@H](OC)CN(C)C2=O
    i, -2.0, 3.1, 5.1, -1.1
> COc1ccc(C#Cc2ccc3c(c2)O[C@H](CN(C)C)[C@H](C)CN([C@@H](C)CO)S3(=O)=O)cc1
    i, 11.7, 1.4, 3.0, 4.0
> C[C@@H]1CN([C@H](C)CO)C(=O)c2cc(NS(C)(=O)=O)ccc2O[C@@H]1CN(C)CC1CCCCC1
    i, -16.4, 4.2, 1.9, 1.3
> CC(=O)N(C)C[C@@H]1Oc2ncc(C#Cc3ccccn3)cc2C(=O)N([C@H](C)CO)C[C@@H]1C
    i, -7.0, 2.2, 4.1, -0.1
> Cc1ccccc1-c1cnc(C(O)c2ccc(F)cc2)[nH]1 (centres undefined)
    i, 2.1, 4.0, -3.6, -1.3
> Cc1ccc(S(=O)(=O)Nc2ccc3c(c2)C(=O)N([C@H](C)CO)C[C@@H](C)[C@H](CN(C)Cc2ccncc2)O3)cc1
    i, -0.4, -2.6, 1.7, -0.3
> COc1ccc(-c2cn(CC[C@H]3CC[C@@H](NS(=O)(=O)c4ccccc4C)[C@H](CO)O3)nn2)cc1
    i, 0.2, -3.4, -1.7, 3.2
> C/C=C/c1ccc2c(c1)O[C@H](CN(C)C(=O)CC)[C@H](C)CN([C@@H](C)CO)S2(=O)=O
    i, -2.4, -3.9, -2.5, -0.9
> CCC(=O)N1CC2(CCN(S(C)(=O)=O)CC2)c2c(n(C)c3cc(OC)ccc23)[C@H]1CO
    i, 7.4, -0.8, -3.0, 1.0
> C[C@@H]1CN([C@H](C)CO)C(=O)c2cccc(NS(=O)(=O)c3cccs3)c2O[C@H]1CN(C)S(=O)(=O)c1ccc(F)cc1
    i, -3.1, 0.0, 3.0, 1.0
> CCCN1C[C@H](C)[C@@H](OC)CN(C)C(=O)c2cc(NC(=O)Nc3ccccc3F)ccc2OC[C@H]1C
    i, 1.7, 1.3, -2.8, 1.4
> CC(C)NC(=O)N(C)C[C@@H]1Oc2ccc(NC(=O)Nc3ccc4c(c3)OCO4)cc2CC(=O)N([C@H](C)CO)C[C@H]1C
    i, -1.4, -0.8, -3.0, -0.1

4 compounds from above, showing only FGF22 binding, rRNA inh HTS and rRNA inh HTS OD600:
Compound | FGF22 binding | rRNA inh HTS | rRNA inh HTS OD600
CCC(=O)Nc1ccc2c(c1)OC[C@H](C)N(C(=O)Cc1ccccn1)C[C@@H](C)[C@@H](OC)CN(C)C2=O | i | 3.1 | 5.1
COc1ccc(C#Cc2ccc3c(c2)O[C@H](CN(C)C)[C@H](C)CN([C@@H](C)CO)S3(=O)=O)cc1 | i | 1.4 | 3.0
C[C@@H]1CN([C@H](C)CO)C(=O)c2cc(NS(C)(=O)=O)ccc2O[C@@H]1CN(C)CC1CCCCC1 | i | 4.2 | 1.9
CC(=O)N(C)C[C@@H]1Oc2ncc(C#Cc3ccccn3)cc2C(=O)N([C@H](C)CO)C[C@@H]1C | i | 2.2 | 4.1

Going on with the list.
Under each structure – FGF22 binding, AF4-AF9 inh, rRNA inh HTS, rRNA inh HTS OD600, rRNA inh HTS RFP
> O=C(NCCCN1CCOCC1)[C@@H]1[C@@H](CO)[C@@H]2Cn3c(cccc3=O)[C@H]1N2C(=O)C1CCCC1
    i, 1.6, 2.0, 12.4, -0.2
> CCc1ccc([C@@H]2CC(=O)[C@@H]3CN(S(=O)(=O)c4ccccc4C)[C@H](c4ccc(Cl)cc4)C[C@@H]3N2S(=O)(=O)c2ccc(C)cc2)cc1
    i, -3.7, 12.7, 24.9, 5.7
> C[C@H](CO)N1C[C@H](C)[C@H](CN(C)C(=O)Nc2ccccc2F)Oc2ncc(-c3cccc(F)c3)cc2C1=O
    i, -1.9, -7.5, -13.2, -3.4
> CCCC(=O)Nc1ccc2c(c1)C(=O)N(C)[C@@H]1CC[C@H](CC(=O)N3CCCCC3)O[C@@H]1CO2
    i, -2.2, 0.6, 4.7, -2.9
> COc1cccc2c1C(=O)c1c(O)c3c(c(O)c1C2=O)CC(O)(C(C)=O)CC3OC1CC(N(C)C)C(O)C(C)O1 (centres undefined)
    i, 13.6, 19.8, -77.4, 36.4
> CNC[C@@H]1Oc2ccc(NC(=O)Nc3ccc(F)cc3)cc2C(=O)N([C@@H](C)CO)C[C@@H]1C
    i, 2.7, 1.8, 6.9, 1.6
> C[C@@H]1CN([C@H](C)CO)C(=O)c2cc(NS(=O)(=O)c3cccs3)ccc2O[C@@H](C)CCCCO[C@@H]1CN(C)C(=O)c1ccncc1
    i, -0.7, 2.6, 5.1, -1.9
> CN1C(=O)c2cc(NC(=O)C3CCOCC3)ccc2OC[C@H]2O[C@H](CC(=O)NCc3ccc4c(c3)OCO4)CC[C@H]21
    i, -1.6, 2.7, -0.7, -1.0
> C[C@@H]1CN([C@H](C)CO)C(=O)c2cccc(N(C)C)c2O[C@@H]1CN(C)C(=O)Nc1ccccc1
    i, -2.7, 0.6, -0.1, -3.1
> COC(=O)C1=CN(c2cccc(OCc3ccccc3)c2)C(N)=C(C#N)C1c1cccc(OC)c1OC (centres undefined)
    i, -2.3, 23.1, 15.4, 13.6
> C[C@@H]1CN([C@@H](C)CO)C(=O)c2cc(NC(=O)Nc3ccc(F)cc3)ccc2O[C@@H](C)CCCCO[C@H]1CN(C)Cc1ccc(C(F)(F)F)cc1
    i, 0.3, -0.7, -4.5, 2.7
> COC(=O)[C@H]1[C@H](CO)[C@H]2Cn3c(ccc(-c4cccc(OC)c4)c3=O)[C@H]2N1CC1CC1
    i, 0.6, -0.9, -1.5, 0.6
> CC(C)NC(=O)Nc1ccc2c(c1)C(=O)N([C@H](C)CO)C[C@@H](C)[C@H](CN(C)CC1CC1)OCCCC[C@H](C)O2
    i, 10.3, 2.1, 8.7, -2.6
> OC[C@H]1[C@@H](c2ccc(C#Cc3ccccc3F)cc2)[C@@H]2CN(CC3CCOCC3)CCCCN12
    i, 19.0, -4.6, -21.4, 8.1
> COc1ccc(NC(=O)N(C)C[C@@H]2Oc3ccc(NC(=O)Cc4ccccc4)cc3C(=O)N([C@@H](C)CO)C[C@@H]2C)cc1
    i, -18.9, -0.5, -4.3, 0.0
> O=C(Nc1cccn2nc(COCCO)nc12)C(c1ccccc1)c1ccccc1
    i, 0.2, -2.6, -7.3, -7.2
> C[C@@H]1CN([C@H](C)CO)C(=O)c2cc(NS(=O)(=O)c3ccc(Cl)cc3)ccc2O[C@H]1CN(C)S(=O)(=O)c1cn(C)cn1
    i, -3.3, 2.6, 6.9, -3.2
> O=C(C[C@H]1C[C@@H]2c3cc(NC(=O)CC4CC4)ccc3O[C@@H]2[C@@H](CO)O1)NCc1cc(F)ccc1F
    i, 0.3, -6.2, -16.6, 2.4
> COc1ccc(S(=O)(=O)N(C)C[C@@H]2Oc3ccc(NC(=O)C4CC4)cc3C(=O)N([C@H](C)CO)C[C@@H]2C)cc1
    i, -4.1, 0.9, 3.5, 0.3
> O=C(N[C@@H]1CC[C@H](CCNS(=O)(=O)c2cccc(Cl)c2)O[C@@H]1CO)c1ccccc1
    i, -0.3, -0.5, 3.2, -2.8
> C[C@H]1CN([C@@H](C)CO)C(=O)c2cc(NC(=O)CCCN(C)C)ccc2O[C@@H]1CN(C)S(=O)(=O)c1ccc(F)cc1
    i, -0.6, 2.0, 4.6, 1.9
> C[C@@H]1CN([C@H](C)CO)C(=O)Cc2cc(NC(=O)CCN3CCOCC3)ccc2O[C@@H]1CN(C)Cc1ccc(C(=O)Nc2ccccc2N)cc1
    i, 3.0, -1.7, -0.7, -0.9
> C/C=C/c1ccc([C@H]2[C@@H](CO)N3CCCCN(C(=O)Nc4ccc(F)cc4)C[C@@H]23)cc1
    i, -1.0, 5.9, -20.6, 4.8
> C[C@@H]1CN([C@H](C)CO)C(=O)c2cc(NC(=O)Nc3cccc4ccccc34)ccc2O[C@@H](C)CCCCO[C@H]1CN(C)Cc1ccc(Cl)c(Cl)c1
    i, -1.9, -4.6, -10.9, -3.2
> CN1CCN(C(=O)C[C@H]2CC[C@@H]3[C@H](COC[C@H](O)CN3C(=O)Nc3ccc(Cl)cc3)O2)CC1
    i, -0.8, -16.8, -4.6, 2.3
> C[C@@H]1CN([C@@H](C)CO)C(=O)c2cc(NC(=O)Nc3cccc4ccccc34)ccc2O[C@@H](C)CCCCO[C@@H]1CN(C)Cc1ccccc1
    i, 6.4, -0.8, 6.8, -0.4
> COc1ccc2c3c([nH]c2c1)[C@@H](CO)N(Cc1ccc(Cl)cc1)CC31CCN(Cc2ccccc2)CC1
    i, 3.1, -12.6, -26.5, 5.3
> C[C@@H]1CN([C@@H](C)CO)C(=O)c2cc(NC(=O)NC3CCCCC3)ccc2O[C@H]1CN(C)C(=O)Nc1ccc(C(F)(F)F)cc1
    i, 0.6, -6.3, -4.4, -1.3
> O=C(CC1CC1)N[C@@H]1CC[C@H](CCNS(=O)(=O)c2ccc(F)cc2)O[C@@H]1CO
    i, -1.3, 0.5, -5.3, 0.7
> C[C@H]1CN([C@@H](C)CO)C(=O)c2cccc(NS(=O)(=O)c3cn(C)cn3)c2O[C@@H]1CN(C)CC1CCCCC1
    i, 0.6, 2.2, -3.3, -0.7
> CO[C@@H]1CN(C)C(=O)c2ccc(NC(=O)CC(F)(F)F)cc2OC[C@H](C)N(C(=O)C2CC2)C[C@@H]1C
    i, -4.1, 2.7, 2.6, 2.3
> C[C@@H]1CN([C@@H](C)CO)C(=O)Cc2cc(NS(C)(=O)=O)ccc2O[C@H]1CN(C)S(=O)(=O)c1ccccc1
    i, -3.8, 3.6, 1.4, -0.6
> O=C(c1cccc(F)c1)N1CCCCN2[C@H](CO)[C@H](c3ccc(-c4ccncc4)cc3)[C@H]2C1
    i, -0.7, -0.2, 6.2, -2.1

Screens: PubChem, Broad Institute

A portion of the library, so the mix of outcomes need not match the whole.
